Screening data (PubChem BioAssay)
MgrA DNA FP: modulators of Staphylococcus aureus MgrA DNA binding | fluorescence polarization | inhibition, %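 (about 10 µg/mL by stock and volumes)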 | actives 0.13% (n = 84,000) | AID 602314;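 active = above 50% in either of two replicates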;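 also: 0% = protein plus DNA without compound and 100% = DNA alone without protein; higher means less MgrA bound to DNA so lower polarization; one replicate is shown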
Sa helicase inh: blocks Staphylococcus aureus DNA helicase. purified S. aureus helicase, fluorescence unwinding assay; about half of the hits fall short of the stated cut. inhibition, %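 (tested at about 80 µM)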. actives 0.05% (n = 120,000);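 active = both duplicates at 50% or more, or one of them with a favoured structure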;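 also: 0% = mean of negative control wells and 100% = mean of positive control wells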
* hit, by the source's call; . = no result given; & = joins results of further samples. A portion of the library; the hit share may differ from the screen's.

Molecule,MgrA DNA FP,Sa helicase inh
O=C(CN1C(=O)C2C3C=CC(C3)C2C1=O)Nc1ccc2ncccc2c1 (configuration not stated),-0.3,14.0
Cc1cc(C)cc(OCCSc2nc3ccccc3n2CCC#N)c1,.,-7.0
COc1ccc2[nH]c(C(=O)N(C)c3ccccc3Cl)cc2c1,-0.5,.
O=C(Nc1cccc(Cl)c1)c1cc(S(=O)(=O)N2CCCCCC2)ccc1F,.,1.0
Cc1ccc(S(=O)(=O)n2nc(-n3c(C)ccc3C)c3c(F)cccc32)c2ccccc12,-2.5,.
CCn1c(N)c(C(=O)COC(=O)CC2Sc3ccccc3NC2=O)c(=O)[nH]c1=O (configuration not stated),.,-7.0
CC12C(=O)N(CCC(=O)O)C(=O)C1C1C=CC2C1 (configuration not stated),0.9,-9.0
O=C(NC1CCCC1)c1ccc(CS(=O)(=O)c2cccc(C(F)(F)F)c2)o1,-0.5,20.0
CCN(C(=O)c1ccc(S(=O)(=O)N2CCC(C)CC2)cc1)C1CCS(=O)(=O)C1 (configuration not stated),.,-7.0
Cc1ccc(S(=O)(=O)N(CC(=O)Nc2ccc3c(c2)OCCO3)C2CCCCC2)cc1,-0.7,9.0
O=S1(=O)CCN(N2CCCCC2)CC1,-0.6,.
COc1cc(-c2nc3ccccc3c(=O)n2NC(=O)/C=C/c2ccc(Br)cc2)cc(OC)c1OC,-0.4,.
CCOC(=O)Cc1ccc(NC(=O)N2CCOc3ccccc32)cc1,0.4,-1.0
CCOc1ccc(NC(c2ccccn2)c2oc(CO)cc(=O)c2O)cc1 (configuration not stated),.,2.0
O=C(O)/C=C/c1cc(C(F)(F)F)ccc1Cl,.,-11.0
Nc1c2c(=O)[nH]c(-c3ccccc3)nc2nn1-c1ccccc1,-0.4,.
CC1CCCN(C(=O)COC(=O)c2ccc(-c3cccc(C(F)(F)F)c3)o2)C1 (configuration not stated),.,-2.0
CSc1nc(-c2ccccc2)c(C#N)c(=O)[nH]1,-0.8,.
Cc1nn2c(CN(C(=O)CN3CCOCC3)c3ccccc3)nnc2c2ccccc12,-3.6,25.0
O=C(Nc1ccc(Cl)cc1)OC1CS(=O)(=O)CC1N1CCCC1 (configuration not stated),.,-1.0
CC(C(=O)NCc1ccc(F)cc1)N1Cc2ccccc2C1=O (configuration not stated),.,-22.0
Cc1ccc(/C=N/N2CCOCC2)s1,.,-3.0
O=C1c2ccccc2C(=O)c2c1oc(-c1ccccc1)c2C(=O)c1ccccc1,13.2,-16.0
CN1C(=O)OC(C)(CCc2ccccc2)C1(C)O (configuration not stated),.,-3.0
N#CCC(=O)Nc1ccc(Oc2ccccc2)cc1,-1.8,-11.0
COc1ccc(NC(=O)CN(C)C(C)C(=O)N2CCCCC2)cc1 (configuration not stated),.,3.0
N#Cc1cn(Cc2ccc(F)cc2)c2ccccc12,2.2,15.0
CC(=O)Nc1ccc(S(=O)(=O)Nc2ccccc2Oc2ccc(Cl)cc2Cl)cc1,2.0,.
O=C(CSc1nc2c(c(=O)[nH]1)CN(Cc1ccccc1)CC2)Nc1ccccc1,.,-10.0
CS/C(=C(\C#N)C(=O)C1CC1)N1CCOCC1,0.8,.
N#C/C(=C/c1ccc(-c2cccc(C(F)(F)F)c2)o1)c1cccc(F)c1,3.0,16.0
COc1nccnc1NS(=O)(=O)c1ccc(NCc2cc(Br)ccc2O)cc1,-0.1,1.0
Cc1nc(-c2cccc(CSc3nnc(C(F)(F)F)n3C)c2)no1,-1.1,.
C=C1SC(=Nc2ccccc2Cl)N(C(=O)c2sc3ccccc3c2Cl)C12CCCCC2,0.8,.
Cc1ccc(Sc2nc(C)c([N+](=O)[O-])c(C)c2C#N)cc1,-1.1,.
CCCCN(C(=O)c1sc2nc3n(c(=O)c2c1C)CCCCC3)C1CCN(C(C)=O)CC1,.,22.0
CSC(=S)N(C)/N=C/c1cc(Cl)cc(Cl)c1O,0.5,.
NC(=S)N1C(c2ccccc2)CCN1c1ccccc1 (configuration not stated),1.6,-11.0
O=C(O)Cn1cccn1,.,-11.0
O=C1c2ccccc2C(=O)N1CNc1ccc(Cl)cc1,0.4,.
COc1ccc(/C(C)=N/N=C(N)N)c(O)c1,.,-10.0
Cc1cccc(NC(=O)CSc2cn(CCNC(=O)c3ccc(F)cc3)c3ccccc23)c1C,2.0,9.0
O=S(=O)(NCc1ccc2c(c1)OCO2)c1ccc(I)cc1,2.6,2.0
CSc1ncc(C)cc1C#N,-2.3,.
CNCCc1ccccn1,-3.2,.
S=C(NCc1cccnc1)c1ccccc1,-1.2,.
CCCCc1ccc(Nc2ncnc3c2cnn3-c2ccccc2)cc1,-0.2,3.0
CCN1C(=O)C(C(c2ccncc2)c2c(O)n(CC)c(=S)n(CC)c2=O)C(=O)N(CC)C1=S (configuration not stated),3.5,.
O=C(CSC(F)(F)F)Nc1ccc(I)cc1,.,8.0
N#Cc1cnc(Oc2ccc(Cl)cc2)nc1N,2.7,.

(listing goes on)
Molecule,MgrA DNA FP,Sa helicase inh
C=CCN1CC(c2nc3ccccc3n2Cc2ccc(F)cc2)CC1=O (configuration not stated),-0.3,2.0
COc1ccccc1NC(=O)C1CC(=O)N(Cc2ccc3c(c2)OCO3)C(=Nc2ccccc2)S1 (configuration not stated),0.7,.
O=C(O)C1C2C=CC(C2)C1C(=O)Nc1cc(Cl)cc(Cl)c1 (configuration not stated),-1.7,.
Cn1cnnc1Sc1cc(C#N)c(C#N)cc1Sc1nncn1C,5.5,.
Cc1cc(C)c(NC(=O)COC(=O)c2ccco2)c(C)c1,-2.0,-9.0
Cc1noc(C)c1C(=O)NCc1ccc(-c2csnn2)cc1,-1.4,.
CCOC(=O)N1CCC(NC(=O)c2cnn3c(C(F)(F)F)cc(-c4ccccc4)nc23)CC1,.,19.0
CS(=O)(=O)N(Cc1ccco1)CC(O)Cn1c2ccccc2c2ccccc21 (configuration not stated),.,17.0
Cc1nc2ccc(-n3ccc(=O)cc3)cc2s1,0.8,-23.0
Nc1ccccc1Nc1c(N)c(=O)oc2ccccc12,1.2,7.0
CCn1c2ccccc2c2cc(C3C(C#N)=C(C)NC(C)=C3C#N)ccc21,0.2,-13.0
NC(=O)C1CCN(C(=O)/C=C/c2cccc(Br)c2)CC1,-1.4,-34.0
CCn1c(SCC(=O)OC)nc2c1c(=O)n(C)c(=O)n2C,.,-17.0
COc1ccc(C(C)=NNC(=O)C(C)Nc2ccc(C)cc2)cc1 (configuration not stated),.,-23.0
C[n+]1ccn(C/C(N)=N/O)c1,.,21.0
CCC(=O)N=C1SC2CS(=O)(=O)CC2N1CCc1ccccc1 (configuration not stated),.,-17.0
N#Cc1c(NC(=O)CO/N=C/c2cccs2)sc2c1CCCCC2,.,-6.0
CCOC(=O)c1ccc(N=c2oc3cc(N(CC)CC)ccc3cc2C(N)=O)cc1,0.1,.
O=C(Cn1ncc2c1-c1ccccc1OC2)N1CCCCC1,8.0,1.0
CCc1cccc(CC)c1N(COC)C(=O)Cn1nnc2ccccc21,.,7.0
O=C(Nc1ccccc1)N1CCCC1,0.6,.
CCn1c(NC(=O)Nc2ccccc2OC)nc2ccccc21,.,14.0
Cc1ccc(CNC(=O)CSCc2c(C)noc2C)cc1,.,-1.0
O=C(/C=C/c1ccccc1)Nc1nnc(-c2ccc(Br)cc2)o1,.,1.0
CC(=O)n1cc(/C=C2\N=C(c3cccc4ccccc34)OC2=O)c2cc(Br)ccc21,1.1,.
CC(=O)Oc1cc2c(C(=O)NCC3CCCO3)c(C)oc2c2ccccc12 (configuration not stated),.,7.0
O=C(NCc1ccccc1)c1cc(=O)[nH]c2ccccc12,.,-5.0
O=C1/C(=C/c2cccs2)N=C(c2cccs2)N1Nc1ccccc1,1.5,26.0
CCOc1ccc2nc(NCCNC(=O)C3CCCCC3)c(C#N)cc2c1,0.8,6.0
Cc1nc2sccn2c(=O)c1S(=O)(=O)NC1CC1,1.3,5.0
c1ccc(-c2nc(N3CCCCC3)c3ccccc3n2)cc1,1.7,2.0
COC(=O)c1scc(C)c1NC(=O)/C=C/C(=O)O,-2.9,.
Cc1cc(-c2csc(N)n2)c(C)n1Cc1ccco1,.,28.0
Cc1cccc(NC(=O)CNS(=O)(=O)c2cccs2)c1,.,9.0
N#CC1(NCCc2ccccc2)CCN(Cc2ccccc2)CC1,-0.4,.
COc1ccc(NC(=O)COC(=O)c2ccc(N3CCCC3=O)cc2)cc1,.,3.0
COc1ccccc1CNC(=O)CCS(=O)(=O)c1cccc2nonc12,-0.6,8.0
Cc1cccc(N(C)S(=O)(=O)c2ccc3c(c2)n(C)c(=O)c(=O)n3C)c1,-2.0,14.0
CCOC(=O)c1cccc(NC(=O)CCS(=O)(=O)c2cccc3nsnc23)c1,.,14.0
COC(=O)c1ccccc1NC(=O)NCc1ccccn1,-0.3,21.0
CC(C)CC1NC(C(=O)O)Cc2c1[nH]c1ccccc21 (configuration not stated),-4.2,-2.0
CCOc1ccc(CCNC(=O)C2CCCN(S(C)(=O)=O)C2)cc1OCC (configuration not stated),.,-6.0
O=C(O)C1Cc2c([nH]c3ccccc23)C(CCc2ccccc2)N1 (configuration not stated),3.2,.
CC(=O)NCc1ccc(S(N)(=O)=O)cc1,.,2.0
CC(C)CNC(=O)c1ccccc1N,.,6.0
c1csc(C2=NCCC2)c1,.,9.0
CCCCCCc1cc2cc(C#N)c(=O)oc2cc1O,8.9,-235.0
COCCn1c(=NC(=O)c2ccc(Br)s2)sc2cc(NC(C)=O)ccc21,.,16.0
CN(C)C(=O)c1ccc(Oc2cc(Cl)cc(Cl)c2)o1,-1.7,.
CC(C)COc1ccc(C(=O)N2N=C(C(F)F)CC2(O)C(F)F)cc1 (configuration not stated),.,-1.0

Two of these compounds in another layout.
MgrA DNA FP | Sa helicase inh | mol
. | -7.0 | CCN(C(=O)c1ccc(S(=O)(=O)N2CCC(C)CC2)cc1)C1CCS(=O)(=O)C1 (configuration not stated)
-0.7 | 9.0 | Cc1ccc(S(=O)(=O)N(CC(=O)Nc2ccc3c(c2)OCCO3)C2CCCCC2)cc1

The list continues:
Molecule,MgrA DNA FP,Sa helicase inh
Cc1cccc(C)c1NC(=O)C(C)N1CCCCC1 (configuration not stated),-0.7,.
CCn1c(SCCc2ccccc2)nc2cc(S(=O)(=O)N3CCOCC3)ccc21,.,10.0
CCOC(=O)c1ccc(NC(=O)C2CC(=O)N(Cc3ccc(OC)cc3)C(=Nc3ccccc3)S2)cc1 (configuration not stated),-1.6,.
CN(C)/C=C1\SC(=S)N(c2ccc(Br)cc2)C1=O,.,-123.0
CC(C)(C)c1csc(Cc2ccc(Cl)cc2)n1,0.0,.
CCCN1C(=O)/C(=c2\sc3n(c2=O)C(c2ccc(OC(C)=O)cc2)C(C(=O)OCC)=C(C)N=3)c2ccccc21 (configuration not stated),-0.7,.
NCCCC[C@H](N[C@@H](CCc1ccccc1)C(=O)O)C(=O)N1CCC[C@H]1C(=O)O,-2.5&4.8,.
CCN1/C(=C(\C#N)c2nc(C#N)c(C#N)nc2N2CCOCC2)Nc2ccccc21,0.6,5.0
COc1ccc(CCn2c(=S)[nH]c3ccc(Cl)cc3c2=O)cc1OC,-0.6,9.0
COc1ccc(-c2cc3nc(C)c(CCC(=O)N4CCCC4)c(C)n3n2)c(OC)c1,.,-5.0
O=C(NCc1ccco1)c1cccc(-c2nnc(-c3ccccc3)o2)c1,-0.4,11.0
O=C(Cc1c(F)cccc1Cl)n1nnc2ccccc21,-0.6,9.0
COc1cccc2cc(-c3cn4ccccc4n3)c(=O)oc12,.,-2.0
CC1CCCCN1C(=O)c1cc2nc(-c3ccc(Cl)cc3)cc(C(F)(F)F)n2n1 (configuration not stated),-0.7,11.0
COc1ccc(N2Cc3ccccc3C2=O)cc1,-0.3,7.0
c1csc(CNc2ccc3c(c2)oc2ccccc23)c1,-0.2,11.0
Cc1cc(C(=O)NCC2CCCO2)on1 (configuration not stated),.,17.0
O=C(NCc1cccc2ccccc12)c1ccc2c3c(cccc13)CC2,-0.3,-2.0
CC(=O)n1ccc(-c2ccc(C#Cc3ccccc3)cc2)n1,-1.7,.
CC(=O)c1c(C)[nH]n(-c2nc3ccccc3s2)c1=O,1.2,17.0
O=C(O)c1ccccc1C(=O)n1cnc2ccccc21,.,4.0
CN1CCC(N(C)C(=O)c2cc(-c3ccc(F)cc3)nc3ccccc23)CC1,-1.4,-3.0
CCN1CCN(C(=O)c2ccc3c(=O)n(CCc4ccccc4)c(=O)[nH]c3c2)CC1,.,12.0
Oc1c(Br)cc(Br)cc1C=Nc1ccc(F)cc1,10.5,.
CC(=O)Nc1cccc(NC(=O)CSc2ncnc3ccccc23)c1,.,-6.0
CC(C(=O)NCc1cccs1)n1ncn2cccc2c1=O (configuration not stated),-1.4,6.0
COC(=O)c1cc2ccsc2n1CC(=O)N(C)C1CCCCC1,.,-20.0
